Bioassay records as filed in PubChem BioAssay.
FGF22 binding: FGF22 (human) thermal shift binding; Q9HCT0; recombinant FGF22 thermal shift, SYPRO orange fluorescence; percent of sucrose octasulfate shift, DMSO zero; calls only at 9.99 µM; 1.5% of 340,000 active;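 active = melting point raised past a set limit in the mean and every replicate; three in four hits are not shown here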
Target sequence (Q9HCT0 whole entry, looked up): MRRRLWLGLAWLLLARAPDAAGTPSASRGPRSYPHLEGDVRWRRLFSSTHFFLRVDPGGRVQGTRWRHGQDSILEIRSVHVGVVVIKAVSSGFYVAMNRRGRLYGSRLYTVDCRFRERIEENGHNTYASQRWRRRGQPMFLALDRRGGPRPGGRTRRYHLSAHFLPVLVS
Calls only; i = inactive; + = active, no number.

canonical_smiles | FGF22 binding
C[C@H](O)C#Cc1ccc2c(c1)O[C@@H](CN(C)C(=O)C1CCCCC1)[C@@H](C)CN([C@H](C)CO)S2(=O)=O | i
O=C(NCC(F)(F)F)[C@H]1[C@H](CO)[C@H]2Cn3c(cccc3=O)[C@@H]1N2C(=O)C1CCC1 | i
COc1ccc(S(=O)(=O)Nc2ccc3c(c2)C(=O)N([C@H](C)CO)C[C@@H](C)[C@@H](CN(C)Cc2ccc(C(=O)Nc4ccccc4N)cc2)O3)cc1 | i
C[C@H]1CN([C@@H](C)CO)C(=O)c2cccc(NC(=O)c3ccncc3)c2O[C@H]1CN(C)C(=O)Nc1ccc(C(F)(F)F)cc1 | i
O=C(CN1CCOCC1)NC[C@@H]1N[C@@H](CO)[C@H]1c1ccc(-c2ccccc2)cc1 | i
CCc1cnc(N2[C@@H](C#N)[C@@H](c3ccc(C#Cc4ccccc4F)cc3)[C@@H]2CO)s1 | i
O=C(Nc1ccc(F)cc1)N1C[C@@H]2[C@H](c3ccccc31)[C@H](CO)N2C(=O)c1cccnc1 | i
C[C@@H]1CN([C@H](C)CO)C(=O)c2cccc(NC(=O)Nc3ccc(C(F)(F)F)cc3)c2O[C@H]1CN(C)C(=O)Nc1cccc2ccccc12 | i
Cc1ccc(S(=O)(=O)N(C)C[C@@H]2Oc3ccc(NS(=O)(=O)c4ccc(F)cc4)cc3C(=O)N([C@@H](C)CO)C[C@H]2C)cc1 | i
C[C@@H]1CN([C@@H](C)CO)C(=O)c2cc(NS(=O)(=O)c3ccc(Cl)cc3)ccc2O[C@H]1CN(C)Cc1ccc(Cl)c(Cl)c1 | i
C[C@@H]1CN([C@@H](C)CO)C(=O)Cc2cc(NS(=O)(=O)c3ccc(F)cc3)ccc2O[C@@H]1CN(C)Cc1ccc(C(F)(F)F)cc1 | i
COc1cccc(CNC(=O)[C@@H]2[C@@H](CO)[C@@H]3Cn4c(cccc4=O)[C@H]2N3C(=O)C2CCCCC2)c1 | i
O=C([C@@H]1[C@@H](CO)[C@@H]2Cn3c(ccc(C4=CCCCC4)c3=O)[C@H]1N2Cc1nccs1)N1CCCCC1 | i
COc1ccc(-c2cnc3c(c2)C(=O)N([C@@H](C)CO)C[C@H](C)[C@@H](CN(C)C(=O)CN(C)C)O3)cc1 | i
CCNC(=O)C[C@@H]1CC[C@H](NC(=O)NC2CCCCC2)[C@@H](CO)O1 | i
COc1ccc(NC(=O)N(C)C[C@H]2Oc3c(NC(=O)c4ccncc4)cccc3C(=O)N([C@@H](C)CO)C[C@H]2C)cc1 | i
COc1ccc(NC(=O)N(C)C[C@H]2Oc3ccc(NC(=O)Nc4ccc5c(c4)OCO5)cc3CC(=O)N([C@H](C)CO)C[C@H]2C)cc1 | i
C[C@@H]1CN([C@H](C)CO)C(=O)c2cccc(NC(=O)Nc3ccc(C(F)(F)F)cc3)c2O[C@H]1CN(C)C(=O)NC1CCCCC1 | i
C[C@H](CO)N1C[C@H](C)[C@H](CN(C)C(=O)Nc2ccc(C(C)(C)C)cc2)OCc2cn(nn2)CCCC1=O | i
CCCNC(=O)[C@@H]1[C@@H](CO)[C@@H]2Cn3c(ccc(-c4ccccc4)c3=O)[C@@H]2N1CC1CC1 | i
COc1ccc(S(=O)(=O)Nc2cccc3c2O[C@H](CN(C)C(=O)Nc2ccc4c(c2)OCO4)[C@H](C)CN([C@H](C)CO)C3=O)cc1 | i
O=C(C[C@H]1CC[C@@H](NC(=O)Nc2ccc(C(F)(F)F)cc2)[C@H](CO)O1)NCCN1CCCC1 | i
C[C@H]1CN([C@@H](C)CO)C(=O)c2cc(C#CC3CCCCC3)cnc2O[C@@H]1CN(C)C(=O)Cc1ccccn1 | i
C[C@@H]1CCCCO[C@@H](CN(C)C(=O)Nc2ccc3c(c2)OCO3)[C@@H](C)CN([C@@H](C)CO)C(=O)c2cc(NC(=O)CCC(F)(F)F)ccc2O1 | i
CNC[C@@H]1OCCCC[C@@H](C)Oc2ccc(NC(=O)c3ccccc3)cc2C(=O)N([C@@H](C)CO)C[C@@H]1C | i
CCCC(=O)Nc1ccc2c(c1)C(=O)N(C)[C@@H]1CC[C@H](CC(=O)NCc3cccc(F)c3)O[C@H]1CO2 | i
O=C(C[C@@H]1CC[C@H]2[C@@H](COC[C@@H](O)CN2CCC(F)(F)F)O1)NCc1ccc2c(c1)OCO2 | i
C[C@@H]1CN([C@@H](C)CO)C(=O)c2cc(NC(=O)C3CC3)ccc2O[C@@H]1CN(C)C(=O)Nc1ccccc1 | i
CC(C)NC(=O)N(C)C[C@H]1Oc2ccc(NC(=O)C3CC3)cc2C(=O)N([C@@H](C)CO)C[C@@H]1C | i
C[C@H](CO)N1C[C@H](C)[C@H](CN(C)Cc2cncnc2)Oc2cc(/C=C/c3ccccc3)ccc2S1(=O)=O | i
CO[C@@H]1CN(C)C(=O)c2ccc(NC(=O)c3nc4ccccc4s3)cc2OC[C@H](C)NC[C@@H]1C | i
COc1cccc(-c2ccc(C3[C@H]4CNC[C@@H]3N4C(=O)Nc3ccc(C(F)(F)F)cc3)cc2)c1 (stereo partly drawn) | i
CC[C@H](C)[C@H]1CNC(=O)C(=O)N1CC1CCN(CCc2ccc(OC)c(OC)c2)CC1 | i
COCCNC(=O)C[C@@H]1C[C@@H]2c3cc(NC(=O)C4CCOCC4)ccc3O[C@@H]2[C@@H](CO)O1 | i
C[C@@H]1CCCCO[C@@H](CN(C)C(=O)C2CCCCC2)[C@H](C)CN([C@H](C)CO)C(=O)c2cc(NC(=O)C3CCCCC3)ccc2O1 | i
C[C@@H]1CN([C@@H](C)CO)C(=O)Cc2cc(N(C)C)ccc2O[C@@H]1CN(C)Cc1ccc(C(F)(F)F)cc1 | i
O=C(C[C@H]1C[C@H]2c3cc(NC(=O)c4ccc5c(c4)OCO5)ccc3O[C@H]2[C@H](CO)O1)NCc1ccc(Oc2ccccc2)cc1 | i
C[C@@H]1CN([C@H](C)CO)C(=O)Cc2cc(NC(=O)Cc3cn(C)c4ccccc34)ccc2O[C@H]1CN(C)C(=O)NC1CCCCC1 | i
COc1ccc(NC(=O)Nc2ccc3c(c2)[C@H]2C[C@H](CC(=O)NCc4ccc5c(c4)OCO5)O[C@@H](CO)[C@H]2O3)cc1 | i
CCCC(=O)Nc1ccc2c(c1)OC[C@@H](C)N(C(=O)CN(C)C)C[C@H](C)[C@H](OC)CN(C)C2=O | i

Structures shown so far containing an aryl methoxy group:
canonical_smiles | FGF22 binding
COc1ccc(S(=O)(=O)Nc2ccc3c(c2)C(=O)N([C@H](C)CO)C[C@@H](C)[C@@H](CN(C)Cc2ccc(C(=O)Nc4ccccc4N)cc2)O3)cc1 | i
COc1cccc(CNC(=O)[C@@H]2[C@@H](CO)[C@@H]3Cn4c(cccc4=O)[C@H]2N3C(=O)C2CCCCC2)c1 | i
COc1ccc(-c2cnc3c(c2)C(=O)N([C@@H](C)CO)C[C@H](C)[C@@H](CN(C)C(=O)CN(C)C)O3)cc1 | i
COc1ccc(NC(=O)N(C)C[C@H]2Oc3c(NC(=O)c4ccncc4)cccc3C(=O)N([C@@H](C)CO)C[C@H]2C)cc1 | i
COc1ccc(NC(=O)N(C)C[C@H]2Oc3ccc(NC(=O)Nc4ccc5c(c4)OCO5)cc3CC(=O)N([C@H](C)CO)C[C@H]2C)cc1 | i
COc1ccc(S(=O)(=O)Nc2cccc3c2O[C@H](CN(C)C(=O)Nc2ccc4c(c2)OCO4)[C@H](C)CN([C@H](C)CO)C3=O)cc1 | i
COc1cccc(-c2ccc(C3[C@H]4CNC[C@@H]3N4C(=O)Nc3ccc(C(F)(F)F)cc3)cc2)c1 (stereo partly drawn) | i
CC[C@H](C)[C@H]1CNC(=O)C(=O)N1CC1CCN(CCc2ccc(OC)c(OC)c2)CC1 | i
COc1ccc(NC(=O)Nc2ccc3c(c2)[C@H]2C[C@H](CC(=O)NCc4ccc5c(c4)OCO5)O[C@@H](CO)[C@H]2O3)cc1 | i

(continued)
canonical_smiles | FGF22 binding
O=C(CN1CCOCC1)N1CCCCN2[C@H](C1)[C@H](c1ccc(-c3ccccc3)cc1)[C@@H]2CO | i
N#Cc1cccc(-c2ccc3c(c2)[C@@H]2[C@@H](CCN2S(=O)(=O)c2cccc(F)c2)[C@H](CO)N3)c1 | i
CN1OC[C@@H]2CN[C@H](c3ccc(N4CCCCC4)cc3)C[C@@H]21 | i
O=C(N[C@@H]1CC[C@@H](CC(=O)N2CCOCC2)O[C@@H]1CO)c1cccc(F)c1 | i
COc1ccccc1-c1cn(CC[C@@H]2CC[C@H](NS(=O)(=O)c3ccccc3C)[C@@H](CO)O2)nn1 | i
C#CCNC(=O)C[C@H]1C[C@@]2(C(=O)OC)C(=C[C@H](COCc3ccccc3)O[C@@H]2C)N(Cc2ccc3c(c2)OCO3)C1=O | i
O=C(C[C@@H]1CC[C@@H]2[C@H](COC[C@H](O)CN2S(=O)(=O)c2ccc(F)cc2)O1)NCc1ccc(Cl)c(Cl)c1 | i
C/C=C/c1ccc2c(c1)[C@H]1[C@H](CCN1C(=O)Cc1cccnc1)[C@H](CO)N2C | i
O=C(Nc1ccccc1Cl)N1[C@H](CO)[C@@H]2c3ccccc3NC[C@@H]21 | +
COCC#Cc1ccc2c(c1)O[C@@H](CN(C)C(=O)c1ccccc1F)[C@@H](C)CN([C@@H](C)CO)S2(=O)=O | i
C[C@H]1CCCCO[C@H](CN(C)S(=O)(=O)c2cn(C)cn2)[C@@H](C)CN([C@@H](C)CO)C(=O)c2cc(NC(=O)CCC(F)(F)F)ccc2O1 | i
O=C(C[C@H]1CC[C@H]2[C@@H](COC[C@@H](O)CN2Cc2ccccc2F)O1)NCc1ccccc1F | i
C[C@@H]1CN([C@@H](C)CO)C(=O)c2cc(NS(=O)(=O)c3cccs3)ccc2O[C@@H](C)CCCCO[C@@H]1CN(C)Cc1ccc(C(=O)O)cc1 | i
CC(C)NC(=O)N(C)C[C@H]1OCCCC[C@H](C)Oc2ccc(NC(=O)CCC(F)(F)F)cc2C(=O)N([C@@H](C)CO)C[C@@H]1C | i
COc1ccc2c3c(n(C)c2c1)[C@@H](CO)N(C(=O)c1ccc(F)cc1)CC31CCN(C(=O)Nc2ccc(F)cc2)CC1 | i
C[C@@H]1CCCCO[C@@H](CN(C)C(=O)NC2CCCCC2)[C@H](C)CN([C@H](C)CO)C(=O)c2cc(NC(=O)NC3CCCCC3)ccc2O1 | i
C[C@H]1CN([C@@H](C)CO)C(=O)c2cc(NC(=O)Nc3ccc(C(F)(F)F)cc3)ccc2O[C@@H]1CN(C)C(=O)Nc1ccc(C(F)(F)F)cc1 | i
COc1ccccc1C(=O)Nc1ccc2c(c1)C(=O)N(C)[C@H]1CC[C@@H](CC(=O)NCCc3ccncc3)O[C@@H]1CO2 | i
O=C(C[C@H]1CC[C@@H](NS(=O)(=O)c2ccccc2F)[C@H](CO)O1)NCCCN1CCOCC1 | i
COCCNC(=O)C[C@H]1C=C[C@@H](NS(=O)(=O)c2ccc(C)cc2)[C@@H](CO)O1 | i
O=C([C@@H]1[C@@H](CO)[C@@H]2Cn3c(ccc(-c4ccc(F)cc4)c3=O)[C@H]1N2)N1CCCCC1 | i
CC(C)C#Cc1cnc2c(c1)C(=O)N([C@@H](C)CO)C[C@@H](C)[C@H](CN(C)C(=O)Cc1ccccn1)O2 | i
CC(=O)N[C@H]1CC[C@H](CCNC(=O)Nc2ccc(C(F)(F)F)cc2)O[C@H]1CO | i
COc1ccc(S(=O)(=O)N(C)C[C@@H]2Oc3ccc(NS(C)(=O)=O)cc3CC(=O)N([C@@H](C)CO)C[C@@H]2C)cc1 | i
CC(C)NC(=O)N(C)C[C@@H]1Oc2ccc(NS(=O)(=O)c3cn(C)cn3)cc2CC(=O)N([C@@H](C)CO)C[C@@H]1C | i
O=C(Nc1ccccc1F)N1C[C@@H]2[C@H](c3ccccc31)[C@H](CO)N2C(=O)Cc1ccccc1 | i
CO[C@@H]1CN(C)C(=O)c2ccc(NS(=O)(=O)c3cn(C)cn3)cc2OC[C@H](C)N(CCC(F)(F)F)C[C@@H]1C | i
N#C[C@@H]1[C@@H](c2ccccc2)[C@H](CO)N1C(=O)c1ccc2c(c1)OCO2 | i
C[C@@H]1CN([C@@H](C)CO)C(=O)c2cccc(NS(=O)(=O)c3cn(C)cn3)c2O[C@@H]1CN(C)CC1CCCCC1 | i
Cc1ccc(S(=O)(=O)Nc2ccc3c(c2)C(=O)N([C@@H](C)CO)C[C@H](C)[C@H](CN(C)C)O3)cc1 | i
Cc1noc(C)c1NC(=O)Nc1ccc2c(c1)C(=O)N([C@@H](C)CO)C[C@H](C)[C@H](CN(C)C(=O)NC(C)C)OCCCC[C@H](C)O2 | i
C[C@H]1CN([C@@H](C)CO)C(=O)c2cc(NC(=O)NC3CCCCC3)ccc2O[C@H]1CN(C)C(=O)Nc1ccccc1 | i
COCC(=O)Nc1ccc2c(c1)OC[C@@H](C)N(Cc1cc(-c3ccccc3)on1)C[C@@H](C)[C@H](OC)CN(C)C2=O | i
O=C(C[C@@H]1CC[C@@H](NC(=O)Nc2ccc(C(F)(F)F)cc2)[C@H](CO)O1)NCc1cccc(F)c1 | i
C[C@@H]1CN([C@@H](C)CO)C(=O)c2cc(C#CCC3CCCC3)cnc2O[C@H]1CN(C)Cc1ccccn1 | i
Cc1ccc(S(=O)(=O)N(C)C[C@H]2Oc3ccc(NC(=O)Nc4ccc5c(c4)OCO5)cc3CC(=O)N([C@@H](C)CO)C[C@@H]2C)cc1 | i
COCC(=O)N1C[C@@H](C)[C@@H](OC)CN(C)C(=O)c2ccc(NC(=O)c3ccc(OC)cc3)cc2OC[C@H]1C | i
C[C@H]1CCCCO[C@@H](CN(C)C(=O)NC2CCCCC2)[C@@H](C)CN([C@@H](C)CO)C(=O)c2cc(NC(=O)Nc3ccccc3)ccc2O1 | i
COCC#Cc1ccc2c(c1)O[C@H](CN(C)Cc1cccnc1)[C@@H](C)CN([C@H](C)CO)S2(=O)=O | i
COc1ccc(C#Cc2ccc3c(c2)O[C@H](CN(C)C(=O)Nc2cccc(OC)c2)[C@@H](C)CN([C@@H](C)CO)S3(=O)=O)cc1 | i
C[C@@H]1CN([C@@H](C)CO)C(=O)c2cc(NC(=O)Nc3ccc4c(c3)OCO4)ccc2O[C@@H]1CN(C)S(=O)(=O)c1ccc(F)cc1 | i

These rows are one share of the data. The share of hits here may be higher or lower than overall.
